# FGF22 binding – shifts melting point of recombinant human FGF22. calls only at 9.99 µM. AID 651658. hit rate 1.5% among 340,000. recombinant FGF22 thermal shift, SYPRO orange fluorescence; percent of sucrose octasulfate shift, DMSO zero. Q9HCT0;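 active = melting point raised past a set limit in the mean and every replicate; three in four hits are not shown here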
# Target sequence (Q9HCT0 whole entry, looked up): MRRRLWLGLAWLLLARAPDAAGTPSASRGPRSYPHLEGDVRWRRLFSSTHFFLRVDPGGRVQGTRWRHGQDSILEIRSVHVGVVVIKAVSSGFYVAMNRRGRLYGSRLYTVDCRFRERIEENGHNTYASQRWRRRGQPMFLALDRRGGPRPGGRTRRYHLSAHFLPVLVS
# HNF4A DNA FP – change in binding of human HNF4 alpha to DNA. P41235. HNF4a-FITC DNA binding, fluorescence polarization, 1 h. activity change, % at 10 µM. hit rate 0.3% among 360,000. AID 1224865; in the data active = activity change above about 30%, passing the limit was not always enough;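 note: controls were the assay level and a saturating level of protein; the project sought stronger binding though the title names inhibitors; some compounds called inactive have numbers as strong as hits; positive values seem to mean higher polarization but the record does not say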
# Target sequence (P41235 whole entry, looked up): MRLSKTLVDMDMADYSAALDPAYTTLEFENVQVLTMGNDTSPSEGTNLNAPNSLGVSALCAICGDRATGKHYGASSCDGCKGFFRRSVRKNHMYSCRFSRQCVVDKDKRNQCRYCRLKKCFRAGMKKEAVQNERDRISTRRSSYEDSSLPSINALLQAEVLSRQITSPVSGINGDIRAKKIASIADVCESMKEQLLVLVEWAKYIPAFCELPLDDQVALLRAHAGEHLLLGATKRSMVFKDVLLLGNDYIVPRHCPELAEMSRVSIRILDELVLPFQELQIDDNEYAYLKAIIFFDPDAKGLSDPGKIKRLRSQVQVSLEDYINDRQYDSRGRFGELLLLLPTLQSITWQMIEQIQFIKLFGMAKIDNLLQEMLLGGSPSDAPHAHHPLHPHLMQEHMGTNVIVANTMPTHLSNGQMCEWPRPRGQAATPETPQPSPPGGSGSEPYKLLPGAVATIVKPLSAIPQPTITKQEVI
# Active calls of the source: *; i = inactive; · = not tested or not shown; + = active, no number.
SMILES,FGF22 binding,HNF4A DNA FP
COc1ccc(CN2C(=O)C(CC(=O)NCCN3CCOCC3)CC(C(=O)N(C(C)C)C(C)C)=C2C)cc1 (stereo unspecified),i,-0.7
Nc1[nH]c(C(=O)c2ccccc2)c(-c2ccc(Br)cc2)c1C(=O)NC1CC1,i,-1.7
COCOc1ccc(-c2ncc(OC)nc2NC(=O)c2ccsc2)cc1,i,1.5
CC[C@@H]1Cc2[nH][nH]c(=O)c2[C@@H](c2ccc(Cl)cc2)O1,i,0.8
O=C(NC1CCCCC1)C(c1ccc(-c2ccccc2)cc1)n1c(=O)c(-c2ccco2)nc2ccccc21 (stereo unspecified),i,26.8
COC(=O)[C@]12CCCCC=C1N(Cc1ccc(Cl)cc1Cl)C(=O)[C@H](CC(=O)N1CCOCC1)C2,i,0.2
C[C@H]([C@@H](O)[C@@H](O)[C@@H](C)C(C)(C)C)[C@H]1CC[C@H]2C3CC[C@H]4C[C@H](OS(=O)(=O)O)[C@@H](OS(=O)(=O)O)C[C@]4(C)[C@H]3CC[C@]12C (stereo partly specified),i,-14.8
COc1cc(C)ccc1S(=O)(=O)NC(=O)Cn1nnc(COc2ccc3c(c2)CCCC3)c1C,i,-4.9
CC(C)Cc1ccc(-c2cc3nc(NCCc4ccc(S(N)(=O)=O)cc4)ccn3n2)cc1,i,6.4
CCc1nc2ccc(C(=O)NC3CCN(Cc4ccccc4)CC3)cn2c1N(CC)Cc1cccc(Br)c1,i,-0.7
c1ccc(N=Nc2ccc(C3=NCCO3)cc2)cc1,i,1.7
c1ccc(COc2cccc(-c3cc4nc(NCc5cccs5)ccn4n3)c2)cc1,i,-0.7
COC[C@H]1CCCN1c1ccc2c(c1)O[C@@H](COCc1ccccc1)CN([C@H](C)c1ccccc1)S2(=O)=O,i,-3.1
COc1cccc(NC(=O)N2CCc3nc(NCc4cccc(Oc5ccccc5)c4)ncc3C2)c1,i,7.0
NC(=O)NC(CC(=O)OCC(=O)Nc1nnc(-c2ccccc2)o1)c1ccc(Cl)cc1 (stereo unspecified),i,-0.4
COc1ccc(Cn2cc(CN3CC(N4CCN(Cc5ccccc5F)CC4)CS3(=O)=O)nn2)cc1 (stereo unspecified),i,3.4
O=C(NCc1ccccc1F)Nc1nnc([C@H]2C[C@H](O)[C@@H](CO)O2)s1,i,-1.6
Cc1cccc(C)c1-n1nnnc1C1(C)CCC(=O)N1Cc1ccc(F)cc1 (stereo unspecified),i,0.1
O=C(Nc1ccc(Cl)cc1)C1Cc2c(-c3cccc(F)c3)ccnc2O1 (stereo unspecified),i,-6.6
COc1cccc(C(C(=O)NCc2ccccc2)N2CCN(CCN3CCOCC3)CC2)c1OC (stereo unspecified),i,6.1
CC(OC(=O)[C@@H](NS(=O)(=O)c1ccccc1)C(C)C)C(=O)c1c(N)n(C)c(=O)n(C)c1=O (stereo partly specified),i,0.6
CC(=O)N1CCCC(c2cc(C(=O)Nc3ccccc3)no2)C1 (stereo unspecified),i,1.9
Cc1ccc(S(=O)(=O)CCC(=O)OCC(=O)NCc2ccc(F)cc2)cc1,i,-4.7
COc1ccc(CN2CCC2(C)C(=O)Nc2cnc3ccccc3c2)c2ccccc12 (stereo unspecified),i,0.4
COc1cccc(C(C)(O)c2nc(-c3ccoc3)cs2)c1 (stereo unspecified),i,4.6

# Profiles as entered above. Screens in order: FGF22 binding	HNF4A DNA FP
# COCOc1ccc(-c2ncc(OC)nc2NC(=O)c2ccsc2)cc1 in the list: i	1.5
# COc1ccc(CN2CCC2(C)C(=O)Nc2cnc3ccccc3c2)c2ccccc12 (stereo unspecified) in the list: i	0.4

# Carrying on:
SMILES,FGF22 binding,HNF4A DNA FP
CC(=O)Nc1ccc(-c2ccnc3c2CC(C)(C(=O)NCc2cccc(Cl)c2)O3)cc1 (stereo unspecified),i,-2.0
CS(=O)(=O)c1ccc(Nc2nc(C(N)Cc3ccc(F)cc3)cs2)cc1 (stereo unspecified),i,-0.5
Cc1ccccc1CC(=O)N1CCC(CCC(=O)NC2CC2)CC1,i,-5.3
O=C(Nc1ccc2c(c1)OCO2)c1csc([C@@H]2O[C@H](CO)[C@H](O)[C@H](O)[C@H]2O)n1,i,-0.8
CCN(CC)c1ncnc2c1ncn2[C@H]1CN(Cc2ccc3c(c2)OCO3)C[C@@H](CO)O1,i,-1.6
CCN(CC)C(=O)C1CCCN(Cc2cccc(Cl)c2)C1 (stereo unspecified),i,-1.0
CCCNC(=O)c1cc(C2CCCCN2C(=O)c2cc(OC)c(C)c(OC)c2)on1 (stereo unspecified),i,0.4
O=C1c2ccccc2C(c2nc3ccccc3[nH]2)N1Cc1ccco1 (stereo unspecified),i,1.4
CCCCn1nnnc1C(c1ccnc2ccccc12)N1CCN(C/C=C/c2ccccc2)CC1 (stereo unspecified),i,1.1
CNC(=O)c1ccc(NC(=O)c2ccccc2OCc2c(C)noc2C)cc1,i,-1.0
COC(=O)[C@]12CCCCC=C1N(Cc1ccc(Cl)cc1Cl)C(=O)[C@H](CC(=O)N1CCC(c3ccccc3)CC1)C2,i,-0.5
COc1ccccc1-c1sc2ccccc2c1-c1cnc(N2CCOCC2)nc1,i,-0.1
CC(C)(C)S(=O)N1Cc2cc(C(=O)NCc3ccc4c(c3)OCO4)nc(-c3cccc(-c4ccccc4)c3)c2[C@@H]1CCO (stereo partly specified),i,1.4
CCCCCCN1C[C@H](O)[C@@H](n2cc(-c3ccc(F)cc3)nn2)C[C@@H]1c1ccc(Cl)cc1,i,1.8
NC(=O)C1(N2CCCCC2)CCN(C(=O)c2cc(COc3c(F)cccc3F)on2)CC1,i,1.3
O=C1NC[C@@H](CCCCN2C[C@H](Cc3ccccc3)N(CCC3CCCCC3)C(=O)C2=O)N(CCc2ccc(O)cc2)C1=O,i,-2.7
COc1ccc(C(=O)NCC(c2ccco2)N2CCc3ccccc3C2)c(OC)c1 (stereo unspecified),i,4.2
CCCCCCCCN1C(=O)[C@H](CC(=O)NCc2ccccc2)C[C@@]2(C(=O)OC)CCCCC=C12,i,-3.2
O=C(CNC(=O)N1CC(=O)Nc2ccccc21)NCCCc1ccccc1,i,5.5
COc1ccc(OC)c(S(=O)(=O)NC(=O)C2(C)CCN2C(=O)Cc2ccccc2Cl)c1 (stereo unspecified),i,1.3
COc1ccc(-c2cc3c(c4c2ccn4C)C2CCC3C2)cc1F (stereo unspecified),·,-1.1
CCOC(=O)C1(CCCc2ccccc2)CCN(C(=O)c2n[nH]c(CC)c2C)CC1,i,4.5
CCOC(=O)C1(C)CCCN(C(=O)c2ccccc2OC(F)(F)F)C1 (stereo unspecified),i,0.9
CC(C)CCN1C(=O)CSCC1(C)C(=O)NC(C)C (stereo unspecified),i,-2.8
COc1cccc(CN2CCC2(C)C(=O)Nc2ccc(C)c(O)c2)c1F (stereo unspecified),i,-2.7
# Other compounds
SMILES,FGF22 binding,HNF4A DNA FP
COc1ccc(-c2cc(NC(C)=O)c3ncc(-c4cccc(C(C)=O)c4)n3c2)cc1OC,i,1.5
COc1ccc(CN2CCC[C@]3(N[C@H](c4ccc(OC)cc4)[C@@H]4C(=O)N(Cc5ccccc5)C(=O)[C@@H]43)C2=O)cc1,i,-8.7
C#CCN(C[C@@H]1[C@@H](OC(=O)NC2CC2)[C@@H](OC(=O)NC2CC2)CN(C(=O)OC(C)C)N1C(=O)OC(C)C)S(=O)(=O)c1ccc(C)cc1,i,2.5
O=C(NC(c1ccc(F)cc1)c1ccc2ccccc2n1)C1CCN(CCOc2ccc(F)cc2)CC1 (stereo unspecified),i,-0.2
COCCNC(=O)C1C(=O)Nc2ccccc2C(=O)N1Cc1ccccc1 (stereo unspecified),i,5.7
COCCNC(=O)C1(C)CCCN(Cc2ccc3ccccc3c2Br)C1 (stereo unspecified),i,-2.6
C[C@H](CO)N1C[C@H](C)[C@@H](CN(C)C(=O)CCC(F)(F)F)OCc2cnnn2CCCC1=O,i,1.9
O=C1NC[C@H](Cc2ccccc2)N(C[C@@H]2CCCN2C[C@H](Cc2ccccc2)N2C[C@H](Cc3ccccc3)N(CCc3ccccc3)C(=O)C2=O)C1=O,i,3.7
O=C(C1CCCCC1)N1C[C@@H](O)[C@H](n2cc(-c3ccc(F)cc3)nn2)C[C@@H]1c1ccccc1,i,1.6
CCOC1=C2CN(S(=O)(=O)c3ccc(C)cc3)C(c3ccccc3)CC2N(S(=O)(=O)c2ccc(C)cc2)C(c2ccc(Br)cc2)C1 (stereo unspecified),i,5.3
COc1cccc(-c2oc3c(c2C(=O)OCCN2CCCCC2)C(O)CCC3)c1 (stereo unspecified),i,-2.1
COc1ccc(C(O)c2ncc(-c3ccccc3F)[nH]2)cc1 (stereo unspecified),i,5.5
O=c1c(-c2ccccc2)nc2ccccc2n1C(c1ccccc1)c1nc2ccccc2[nH]1 (stereo unspecified),i,0.8
Nc1ncnc2nn(C3OC(CO)C(O)C3O)nc12 (stereo unspecified),i,-3.1
NC(COCc1ccccc1)c1csc(Nc2ncccn2)n1 (stereo unspecified),i,-2.8
COc1cc(-c2cc(NC(C)=O)c3ncc(-c4ccc(C(C)=O)cc4)n3c2)cc(OC)c1OC,i,3.7
CCOc1ccc(NS(=O)(=O)c2ccc(C(=O)NCC3CCCO3)cc2)cc1 (stereo unspecified),i,1.3
O=C(O)Cc1ccc(NC(=O)c2ccc3c(c2)C(=O)N(Cc2ccccc2)C3=O)cc1,i,4.5
COCCNC(=O)C1(C)CCCN(C(=O)c2c(-c3ccccc3)noc2C)C1 (stereo unspecified),i,2.3
O=C(OCC(=O)c1c[nH]c2ccccc12)c1ccc(OC(F)F)cc1,i,0.1
COc1cccc(N2CCN(C(=O)c3ccc(Cl)c(S(=O)(=O)N4CCCCCC4)c3)CC2)c1,i,1.4
CCc1nc2ccc(C(=O)NCc3ccc4c(c3)OCO4)cn2c1N(C)Cc1cccs1,i,-1.6
CCCCc1c(-c2ccccc2OC)ncn1CCc1ccccc1Cl,i,0.2
CC(C)CC1C(=O)N(Cc2cn(Cc3ccco3)nn2)CCS(=O)(=O)N1Cc1ccc(-c2cccc(N(C)C)c2)cc1 (stereo unspecified),i,-1.0
O=C(NC1CC1)c1cccc(-c2cncc3nccn23)c1,i,-1.2
# New compounds follow:
SMILES,FGF22 binding,HNF4A DNA FP
CCC(=O)N1CCC1(C)C(=O)Nc1ncc(C)s1 (stereo unspecified),i,-1.4
CC(C)c1ccc(C(=O)N2CCCC(c3cc(C(=O)Nc4ccc5c(c4)OCO5)no3)C2)cc1 (stereo unspecified),i,2.0
Cc1cn([C@H]2C[C@H](O)[C@@H](CNC(=O)[C@H](N)Cc3cccnc3)O2)c(=O)[nH]c1=O,i,-7.5
CCOc1cccc(-c2cc(N3CCN(CCO)CC3)n3nccc3n2)c1,i,5.8
COc1ccc(OC)c(-c2cc(C(=O)O)c3cc4ccccc4cc3n2)c1,i,-2.5
COCCNc1nc(NCc2cc(-c3ccc(OC)cc3)no2)c2sccc2n1,i,1.6
Cc1ccccc1S(=O)(=O)NC(=O)C1(C)CCN1C(=O)CCc1cccs1 (stereo unspecified),i,0.7
CCc1nc2ccc(C(=O)N(C)Cc3ccco3)cn2c1N(C)CCCc1ccccc1,i,2.7
CCOC(=O)[C@]12CCC=C1N(Cc1ccc(Cl)cc1Cl)C(=O)[C@H](CC(=O)NCc1cccc(C(F)(F)F)c1)C2,+,1.9
CC(C)NC(=O)c1cc(C2CCCCN2C(=O)c2cc(C(C)(C)C)nn2C)on1 (stereo unspecified),i,-0.9
N#CCCC1(CCC#N)c2ccccc2C(=O)c2ccccc21,i,2.1
COc1cc2ccc(NC(C)=O)cc2cc1OC,i,-3.0
CC(=O)Nc1cc(-c2cccc(F)c2)cn2c(-c3ccccc3)cnc12,i,-2.2
CN(Cc1ccc(Cl)c(Cl)c1)C(C(=O)NCc1ccccc1)c1ccco1 (stereo unspecified),i,4.3
CC(Cc1ccccc1)NC(=O)CCNNC(=O)c1ccncc1 (stereo unspecified),i,-0.7
Cc1cc2nc(C3CCCCC3)c(Cc3ccccc3)n2c(C)c1Br,i,3.4
CCCN(CCC)Cc1cc(=O)oc2ccc3ccccc3c12,i,-0.1
Cc1[nH]c2ccccc2c1C(=O)C(=O)NCc1nnnn1-c1cccc(F)c1,i,-3.1
COc1ccc(-c2ccc(CN3C(C)C(=O)N(Cc4cn(CCC5OCCO5)nn4)CCS3(=O)=O)cc2)cn1 (stereo unspecified),i,-2.4
CCCNC(=O)C1(C)CCCN(Cc2ccc(C(F)(F)F)cc2)C1 (stereo unspecified),i,3.6

# FGF22 binding: entries above that show a hit
SMILES,FGF22 binding,HNF4A DNA FP
CCOC(=O)[C@]12CCC=C1N(Cc1ccc(Cl)cc1Cl)C(=O)[C@H](CC(=O)NCc1cccc(C(F)(F)F)c1)C2,+,1.9

# Exported with values under each structure: part of the list above
# Below each SMILES: FGF22 binding	HNF4A DNA FP
CCc1nc2ccc(C(=O)NC3CCN(Cc4ccccc4)CC3)cn2c1N(CC)Cc1cccc(Br)c1
→ i	-0.7
c1ccc(N=Nc2ccc(C3=NCCO3)cc2)cc1
→ i	1.7
c1ccc(COc2cccc(-c3cc4nc(NCc5cccs5)ccn4n3)c2)cc1
→ i	-0.7
COC[C@H]1CCCN1c1ccc2c(c1)O[C@@H](COCc1ccccc1)CN([C@H](C)c1ccccc1)S2(=O)=O
→ i	-3.1

# Of the compounds above, these contain a thiophene ring, fused or not:
SMILES,FGF22 binding,HNF4A DNA FP
COCOc1ccc(-c2ncc(OC)nc2NC(=O)c2ccsc2)cc1,i,1.5
c1ccc(COc2cccc(-c3cc4nc(NCc5cccs5)ccn4n3)c2)cc1,i,-0.7
COc1ccccc1-c1sc2ccccc2c1-c1cnc(N2CCOCC2)nc1,i,-0.1
CCc1nc2ccc(C(=O)NCc3ccc4c(c3)OCO4)cn2c1N(C)Cc1cccs1,i,-1.6
COCCNc1nc(NCc2cc(-c3ccc(OC)cc3)no2)c2sccc2n1,i,1.6
Cc1ccccc1S(=O)(=O)NC(=O)C1(C)CCN1C(=O)CCc1cccs1 (stereo unspecified),i,0.7

# These rows are one share of the data. The share of hits here may be higher or lower than overall.
